gsp agonist: activates gsp, the McCune-Albright syndrome mutation. gsp mutant cells, cAMP HTRF, 30 min; control for the full effect not named in the record. Potency, µM (series often up to 76.9 µM), for the others: top-dose activation (cAMP increase), hits mostly activators. 340,000 compounds, 0.13% hits. AID 624287; active = well fitted activation curve with a large enough effect; inconclusive = small, poorly fitted or top-dose-only effect, or another doubt; inactive = no such curve, though single readings can be large or run the other way; cell line not stated here;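 note: phosphodiesterase inhibitor Ro 20-1724 added with compounds to block cAMP breakdown; potency is the fitted concentration of half-maximal effect; nearly all actives have a fitted effect of over 60% in size; about a fifth of the inactives were tested at one dose only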
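Cells in DMEM/10% FBS with G418 were pretreated with compounds in DMSO plus […] (300 uM stock) for 30 min at 37C. cAMP was measured by HTRF (cAMP-d2 plus anti-cAMP antibody-K) after 30 min at room temperature.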
D2 agonist: human D2 receptor agonism in beta-arrestin assay; P14416; DiscoveRx PathHunter D2 beta-arrestin, luminescence, 90 min; 100% = 57 uM dopamine signal; activation, % (concentration not given with the values); 360,000 compounds, 0.084% hits; AID 624465; in the data active = activation above about 40%; inconclusive = about 15% to 40%; inactive = below about 15%; note: the text of the record calls up to 30% inactive
Target sequence (P14416 whole entry, looked up): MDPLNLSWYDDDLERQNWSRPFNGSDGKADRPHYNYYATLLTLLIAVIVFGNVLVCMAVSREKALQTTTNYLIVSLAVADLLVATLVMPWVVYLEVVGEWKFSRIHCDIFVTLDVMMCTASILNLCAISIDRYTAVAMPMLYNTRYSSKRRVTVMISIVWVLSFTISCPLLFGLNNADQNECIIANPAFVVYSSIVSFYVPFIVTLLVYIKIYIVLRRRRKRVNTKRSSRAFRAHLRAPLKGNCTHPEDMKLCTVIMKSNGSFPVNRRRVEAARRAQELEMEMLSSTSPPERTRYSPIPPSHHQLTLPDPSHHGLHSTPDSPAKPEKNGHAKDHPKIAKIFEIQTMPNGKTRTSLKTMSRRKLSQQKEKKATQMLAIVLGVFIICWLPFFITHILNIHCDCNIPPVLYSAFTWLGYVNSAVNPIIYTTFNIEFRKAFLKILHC
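Agonist mode: compounds alone added to overnight-plated D2 PathHunter cells for 90 min at 37 C, with 57 uM final dopamine (EC100) defining full response. Beta-arrestin recruitment detected by chemiluminescent reagent, read after 1 h at ambient temperature.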
Menin MLL FP FL: inhibitors of human menin-MLL interaction, wild-type MLL peptide | AID 1766 | 290,000 tested, under 10 active | FP activity change, % at 61.4 µM | Fluorescence polarization, fluorescein-MLL peptide displacement from menin; inconclusive = falling polarisation curve, or a change in total fluorescence; inactive = total fluorescence flat and polarisation flat or rising; no compound was filed as active; the % refers to the polarisation; negative = inhibition;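 note: % of control where 0% means no effect; inhibitors lower the polarisation; unlabelled MLL peptide was the positive control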
Sfp inh: Sfp phosphopantetheinyl transferase inhibition | Biochemical Sfp PPTase activity, qHTS | Potency, µM, for the others: max response, negative = inhibition, hits mostly inhibitors | 310,000 compounds, 3.5% hits | Q9F4F7; active = well fitted inhibition curve with a large enough effect; inconclusive = small, poorly fitted or top-dose-only effect, or another doubt; inactive = no such curve, though single readings can be large or run the other way;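 note: the enzyme is Sfp with the accession as filed and its product quenches rhodamine fluorescence; potency is the fitted concentration of half-maximal effect; 0% = enzyme reaction without inhibitor and -100% = no enzyme wells; top concentration of the series not given in the record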
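Fluorescence-quenching assay: 15 nM Sfp-PPTase preincubated 15 min at room temperature with compound, then 5 uM rhodamine-CoA and 12.5 uM BHQ-2-labelled YbbR peptide added. Fluorescence (ex 525/em 598 nm) read at start and after 30 min; difference gives rate.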
PINK1 modulator: changes PINK1 expression; 410,000 compounds, 0.2% hits; Potency, µM (series often up to 76.6 µM), for the others: at the top dose activation (PINK1 increase), actives largely listed as activators; PINK1 immunofluorescence, high-content cytometry, 24 h; active = well fitted activation curve with a large enough effect; inconclusive = small, poorly fitted or top-dose-only effect; inactive = flat fitted curve, though single readings scatter; cell line not stated here;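 note: potency is the fitted concentration of half-maximal effect; % of control where 0% means no effect; nearly all actives have a fitted effect of over 65% in size; a mitochondrial uncoupler was the plate control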
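Compound titrations (5 concentrations, 24 h) on a stable cell line; DMSO and CCCP controls. Endpoint: fixed-cell PINK1 immunofluorescence with mitochondrial, cell and nuclear markers, scanned by microplate cytometer.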
ClpP mod: qHTS Assay for Activators of ClpP | ATP-dependent Clp protease proteolytic subunit (Bacillus subtilis (strain 168)), P80244 | purified B. subtilis ClpP, FRET peptide cleavage, 20 min | Potency, µM (highest dose often 57.5 µM), inactives show top-dose activity change, negative = active | 340,000 compounds, 1.9% hits | AID 651965, 2013; active = well fitted falling curve with a large enough effect; inconclusive = small, poorly fitted or top-dose-only effect; inactive = no such curve, though single readings can be large or run the other way; note: potency is the fitted concentration of half-maximal effect; the source files actives as falling curves though it sought activators and does not explain the sign; nearly all actives have a fitted effect of over 65% in size; many hits overshoot -100%
Target sequence (P80244 whole entry, looked up): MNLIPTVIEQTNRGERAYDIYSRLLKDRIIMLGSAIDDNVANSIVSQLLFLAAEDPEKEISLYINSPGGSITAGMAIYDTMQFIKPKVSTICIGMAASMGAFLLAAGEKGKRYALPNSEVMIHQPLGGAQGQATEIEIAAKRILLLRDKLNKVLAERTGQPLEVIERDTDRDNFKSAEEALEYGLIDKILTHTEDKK
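Purified B. subtilis ClpP, 10 microg/mL final in Tris/HCl pH8 with KCl, BSA, glycerol and Tween-20, cleaved an Abz/nitrotyrosine-quenched decapeptide. Fluorescence (ex 320, em 430) was read at 0 and 20 min at room temperature. Delta was normalized to 5.8 microM ADEP and DMSO/no-enzyme controls.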
gsp antag: antagonists of gsp mutant (McCune-Albright syndrome); Potency, µM (doses to about 76.9 µM), for the others: at the highest dose activity change, negative = inhibition, most hits filed as inhibitors; gsp-mutant cells, cAMP HTRF, 30 min; control for the full effect not named in the record; 340,000 compounds, 0.4% hits; AID 624288; active = falling curve of any shape with a large fitted effect; inconclusive = falling curve, mostly with a smaller effect; inactive = flat or rising curve; cell line not stated here;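 note: intracellular cAMP measured with PDE inhibitor Ro 20-1724 present during compound exposure; potency is the fitted concentration of half-maximal effect; % is set by controls: 0 for no effect and ±100 for the full control effect; nearly all actives have a fitted effect of over 65% in size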
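HTRF cAMP read-out (cAMP-d2 plus anti-cAMP antibody-K in lysis buffer, 30 min RT). Before lysis, cells are exposed to compounds with […] for 30 min at 37C in DPBS containing Ca/Mg, BSA and Tween 20.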
* = called active by the depositor; ? = inconclusive; . = not tested or not shown; & = joins results of further samples; [ ] = dose if it differs, or a comment. An unsorted share of the library (roughly 5.1% active in at least one column).

SMILES	gsp agonist	D2 agonist	Menin MLL FP FL	Sfp inh	PINK1 modulator	ClpP mod	gsp antag
COc1ccc(S(=O)(=O)NNC(=S)NCCc2ccccc2)c(OC)c1	-2%[15.4 µM]	-3.5	.	25%	1.5%	0.8%	-2%
CCCCCNC(=O)CCn1c(=O)oc2ccccc21	6%	-0.5	0.6	-2%	-0.6%	-2.6%	-4%
CCOC(=O)N1CCN(CC(O)COc2ccccc2C(C)CC)CC1 (configuration not stated)	11%	1.1	5.0	9%	-2.3%	0.5%	5%
Cc1ccc(-n2ncc3c(=O)n(CC(N)=O)cnc32)cc1C	-22%	5.8	-5.3	-1%	0.7%	-11%	1%
Nc1nnc(SCC(=O)Nc2ccc(N3CCOCC3)cc2)s1	3%	0.0	.	.	4.2%	-21%	6%
CC(C)(C)NC(=O)Nc1ccc(Cn2cc(C(F)(F)F)ccc2=O)cc1	20%[15.4 µM]	-2.1	4.5	17%	1.9%	.	-12%
NC(=O)c1ccccc1NC(=O)/C=C/c1ccccc1	-16%	-2.5	1.2	7%	5.4%	-12%	5%
COC(=O)c1ccc(CSc2nnc(Nc3ccccc3OC)s2)o1	-5%	0.9	4.5	-10%	.	-0.8%	-14%
CC(C)c1ccc2oc(-c3ccc(NC(=O)c4ncn[nH]4)cc3)nc2c1	-8%	0.8	5.6	15%	.	?	-5%
O=C(c1cccs1)N1CCN(c2nc3ccc([N+](=O)[O-])cc3s2)CC1	15%	0.0	.	.	7.3%	-0.3%	1%
CCc1ccc(CN(C)CC(=O)Nc2sccc2C#N)cc1	16%[15.4 µM]	-3.4	3.5	26%	1.7%	2.0%	-24%
O=C(Nc1ccc(Cl)c(Cl)c1)Nc1ccccc1C(=O)O	?	0.5	0.3	26%	0.1%	.	?
COc1ccc(C(=O)Nc2ncc3c(n2)CC(c2ccco2)CC3=O)cc1 (configuration not stated)	?	-1.7	0.1	50µM*	0.0%	0.2%	1%
Cc1cc(N2CCCC2)ccc1NC(=O)CN1C(=O)NC(C)(c2ccccc2)C1=O (configuration not stated)	6%[15.4 µM]	-4.9	.	-11%	0.5%	.	-10%
O=C(O)c1ccc(Cn2cnc3c(=S)nc[nH]c32)cc1	1%	1.9	.	.	0.0%	.	8%
c1ccc2c3c(c(CN4CCCC4)cc2c1)COC3	-40%[inhibitor]	-1.2	?	7%	-0.8%	-10%	1%
COc1ccc(-c2ccc(S(=O)(=O)NCC3CCCO3)cc2)cc1 (configuration not stated)	21%[15.4 µM]	-4.1	1.4	7%	-0.6%	5.0%	-8%
O=C(Cc1ccccc1F)OCC(=O)N1CCN(C(=O)c2ccco2)CC1	1%[15.4 µM]	-4.8	2.4	9%	-0.3%	.	-1%
COc1cc(C(=O)OCC(=O)Nc2ccc(SC(F)F)cc2)cc(OC)c1OC	-14%	-0.7	-13	20%	2.3%	-2.4%	?
Nc1ccc2nc(CCCCCCc3nc4ccc(N)cc4[nH]3)[nH]c2c1	29%	-0.9	-0.9	10%	-0.4%	.	-17%
CSc1cccc(NC(=O)Cn2cnc(S(=O)(=O)N3CCCC3)c2)c1	31%	-1.9	-3.2	3%	2.6%&-0.5%	-1.5%&-0.3%	17%
CCc1cc(C(c2ccc(OC)c(OC)c2)N2CCOCC2)c(NC(=O)c2ccccc2)s1 (configuration not stated)	-14%	-3.5	3.9	5%	-1.7%	-12%	-17%
COc1ccc(/C=N/n2cnc3c([nH]c4ccc(Br)cc43)c2=O)cc1CN1CCOCC1	?	-2.0	-0.5	11%	-1.2%	1.8%	1%
S=c1[nH]nc(-c2cccs2)n1/N=C/c1cn(-c2ccccc2)nc1-c1ccc(Cl)cc1	2%[15.4 µM]	-5.4	-0.5	-17%	3.3%	.	-17%
CN(C)S(=O)(=O)c1ccc(C(=O)NC(=O)CSc2ccccc2)cc1	-23%	-0.3	5.2	-8%	0.3%	0.2%	-22%
CC(C)(C)c1ccc(CS(=O)CC(O)CO)cc1 (configuration not stated)	-8%	1.9	.	23%	0.1%	-0.9%	15%
Cc1ccsc1C(=O)OCC(=O)Nc1ccc(Cl)cn1	-4%	4.3	.	.	-0.2%	3.9%	7%
CC(OC(=O)c1cc(S(=O)(=O)N2CCOCC2)ccc1F)C(=O)NC1CCCC1 (configuration not stated)	-11%	-0.8	.	.	-0.5%	-4.0%	7%
COc1ccc(N(C)C(=S)Nc2ccc3nc(C)c(C)nc3c2)cc1	0%	-0.6	-0.1	?	-2.0%	-3.6%	8%
CCn1c(CCC(=O)Nc2cc(F)ccc2C)nc2cc(S(=O)(=O)N(C)C)ccc21	11%	0.3	5.1	11%	3.6%[38.3 µM]	-1.3%	-12%
Oc1cccc2cc3cccc(O)c3c(O)c12	.	3.6	-2.3	13%	-0.6%	-2.3%	-2%
N#Cc1cc2cc3c(cc2nc1NCCNC(=S)NCCCN1CCOCC1)OCO3	-2%	-2.7	-26	-4%	0.4%	3.4%	-5%
O=C(COC(=O)c1ccc(S(=O)(=O)C(F)F)cc1)Nc1ccccc1C(=O)NC1CC1	-16%	-0.6	.	.	0.9%	-0.4%	-4%
CCOC(=O)C(=CNc1cc(C)ccc1-n1cccc1)C(=O)OCC	-3%[15.4 µM]	4.7	1.2	-23%	0.8%	.	?
CCCc1cc(C(F)(F)F)c(C#N)c(=O)[nH]1	4%	-1.0	2.4	11%	2.4%	?	-16%
COc1ccc(C(=O)Nc2ccc(NC(=O)c3cc(OC)c(OC)c(OC)c3)cn2)cc1	?	-0.3	5.8	15%	3.9%	.	54%[activator]
CCCSc1ccccc1C(=O)N1CCN(C(=O)c2ccco2)CC1	1%	4.6	.	6%	0.4%	-1.1%	4%
CCCc1ccc(S(=O)(=O)NCCc2ccncc2)cc1	4%	-0.3	0.2	11%	-1.3%	3.8%	-21%
Cc1ccc(S(=O)(=O)NCCc2nnc3ccc(SCc4cccnc4)nn23)cc1	?	0.0	-3.1	8%	-1.7%	0.9%	-4%
CCCCN1C(=O)NC(NC(=O)C2CC2)(C(F)(F)F)C1=O (configuration not stated)	0%	-6.0	-0.9	2%	-0.9%	.	-12%
N#Cc1cc(N)ccc1Sc1ccccc1	-11%	2.2	1.4	-10%	-0.1%	?	-6%
OCC1OC(n2cnc3c(N4CCCCC4)ncnc32)C(O)C1O (configuration not stated)	9%	-0.5	.	.	-1.0%	1.2%	1%
CC(C)Sc1nnc(CNC(=O)C23CC4CC(CC(C4)C2)C3)n1C1CCCCC1	-49%[inhibitor]	0.3	-7.6	-6%	2.9%	-0.3%	4%
COc1ccc(CNC(=O)COC(=O)Cc2ccsc2)cc1	11%	1.2	2.7	23%	2.0%	.	6%
COc1ccc(N2CCN(C(=O)CN(c3cccc(Br)c3)S(C)(=O)=O)CC2)cc1	3%	-2.8	1.2	2%	2.1%[38.3 µM]	-3.4%	-11%
O=C(Nc1ccc(N2CCOCC2)c(Cl)c1)c1ccc(-n2cnnc2)cc1	-12%	3.4	.	16%	-0.5%	0.1%	5%
CCOC(=O)c1c(C)[nH]c(C(=O)N/N=C/c2ccc(OC)c(OC)c2)c1C	-21%	1.9	.	14%	3.0%	0.1%	9%
CCCCn1c(N)c(N(CC)C(=O)c2ccc(-c3ccc(Cl)cc3)o2)c(=O)[nH]c1=O	1%	-0.7	.	.	1.3%	2.7%	-1%
O=C(O)/C=C/C(=O)Nc1ccc(-n2ccc(C(F)(F)F)n2)cc1	4%	-5.1	-1.9	23%	0.5%	-0.1%	3%
O=C(NC1CCCC1)c1ccc(CS(=O)(=O)c2ccc(Cl)cc2)o1	25%	1.6	.	10%	1.5%	-0.6%	0%
COc1ccc(/C=N/NC(=O)c2cccc(OC(F)(F)C(F)F)c2)cc1O	?	0.9	-1.3	5%	6.7%	-0.9%	5%
O=[N+]([O-])c1cc(Cl)cc(/C=N/NC(=S)Nc2ccc(S(=O)(=O)N3CCOCC3)cc2)c1O	-7%	-6.3	26	?	1.3%	-0.5%	?
Cc1ccc(S(=O)(=O)Nc2ccc3c(c2)CCC3)cc1C	-24%	3.2	0.5	13%	?	-0.4%	9%
O=C(Nc1ccc([N+](=O)[O-])c(NC(=O)c2cccnc2)c1)c1cccnc1	-2%	-3.1	.	.	-1.0%	.	-3%
COC(=O)c1ccc(NS(=O)(=O)c2ccc(-c3cc(C)no3)s2)cc1	?	-3.7	-0.5	11%	5.3%	-0.4%	-25%
Cn1cccc1CNC(=S)Nc1ccccc1Cl	-5%[15.4 µM]	-3.2	0.2	10%	2.6%	.	5%
COc1cccc(OCCn2cc(C=O)c3ccccc32)c1	-37%	?	1.6	-8%	2.6%	.	1%
Cc1ccccc1OCCC(=O)OCC(=O)NC1CCCCC1	-8%[15.4 µM]	-2.6	.	.	1.5%	-1.0%	12%
N#C/C(=C\c1ccc(O)c(O)c1)C(=O)N1CCc2ccccc21	.	-1.3	.	.	-0.5%	1.0%	?
COc1ccc(C(O)P(=O)(OCC(C)C)c2ccc(N(C)C)cc2)c(OC)c1 (configuration not stated)	24%	-5.8	0.3	3%	-3.4%	-1.9%	-4%
New compounds follow:
SMILES	gsp agonist	D2 agonist	Menin MLL FP FL	Sfp inh	PINK1 modulator	ClpP mod	gsp antag
Fc1ccc(CSc2nncn2NC/C=C/c2ccccc2)cc1	2%	-14	3.2	1%	0.6%	-6.7%	-2%
Cc1cc(C(=O)Cn2nc(C(=O)O)c3ccccc3c2=O)c(C)n1C1CC1	-12%[15.4 µM]	0.5	0.4	-8%	0.1%	-1.9%	5%
COc1ccc(S(=O)(=O)N2CCCCCC2)cc1NC(=O)Cc1ccc(OC)c(OC)c1	-3%[15.4 µM]	0.8	.	.	4.3%	-1.1%	-12%
O=C(O)c1csc(-n2nc(-c3ccccc3)cc2C(F)(F)F)n1	7%	3.8	2.8	-3%	-1.5%	4.9%	-18%
COc1ccc(C)cc1NC(=O)C(OC(=O)CNC(=O)c1cc(C)cc(C)c1)c1ccccc1 (configuration not stated)	7%[15.4 µM]	-0.6	5.2	22%	-0.4%	.	-4%
CSc1ccc(C(=O)N2CCC(CCC(=O)NC3CC3)CC2)cc1	-43%[inhibitor]	1.2	.	1%	0.8%	-0.5%	11%

Screening data as filed in PubChem BioAssay.
